MbtI inh: MbtI salicylate synthase inhibitors, primary screen, biochemical, fluorescence intensity; purified MbtI enzyme, fluorescence intensity read-out; 100,000 compounds, 0.89% hits; AID 493033, 2011; inhibition, %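 (about 17 µg/mL by stock and volumes)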;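 active = above 50% in both replicates, above 80% if mildly self-fluorescent; inactive = the rest, strongly fluorescent compounds included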;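 note: 0% = mean of negative and 100% = mean of positive controls; one replicate is shown; some compounds called inactive have numbers as strong as hits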
PV pol inh: poliovirus RdRp elongation inhibitors, primary screen, biochemical, fluorescence polarization, total intensity; Genome polyprotein (Poliovirus type 1 (strain Mahoney)), P03300; poliovirus polymerase elongation; active compounds read low; % elongation, % (compound at 16.7 µg/mL); 150,000 compounds, 0.66% hits; AID 588519, 2011; in the data active = % elongation below about 90%; note: some results filed as inactive read as strong as hits
Target sequence (P03300 1749-2209 limits assumed): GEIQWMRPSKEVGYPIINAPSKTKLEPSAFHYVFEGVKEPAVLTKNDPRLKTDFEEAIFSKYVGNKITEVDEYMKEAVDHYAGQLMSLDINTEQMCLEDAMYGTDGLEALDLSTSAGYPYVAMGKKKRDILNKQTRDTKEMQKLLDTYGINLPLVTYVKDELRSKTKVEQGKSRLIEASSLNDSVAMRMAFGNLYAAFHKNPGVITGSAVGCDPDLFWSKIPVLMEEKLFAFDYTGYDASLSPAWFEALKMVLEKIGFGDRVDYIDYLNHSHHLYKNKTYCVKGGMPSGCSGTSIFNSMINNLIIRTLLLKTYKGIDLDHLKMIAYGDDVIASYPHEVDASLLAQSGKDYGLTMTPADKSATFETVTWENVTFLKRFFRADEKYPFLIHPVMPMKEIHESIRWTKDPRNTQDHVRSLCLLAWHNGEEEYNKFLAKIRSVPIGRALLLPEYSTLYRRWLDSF
Mtb MenB inh: M. tuberculosis MenB inhibitors, primary screen, biochemical, absorbance. MenB enzyme assay, absorbance read-out; some hits fall short of the stated cut. 1,4-dihydroxy-2-naphthoyl-CoA synthase (Mycobacterium tuberculosis (strain ATCC 25618 / …. inhibition, %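 (about 12 µg/mL by stock and volumes)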. 100,000 compounds, 0.43% hits;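 active = mean of two replicates above 30%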;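 note: 0% = no compound and 100% = wells with inactive enzyme; the first replicate is given; strong numbers were not always called active; inactives centre near -10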
Target sequence (P9WNP5 whole entry, looked up): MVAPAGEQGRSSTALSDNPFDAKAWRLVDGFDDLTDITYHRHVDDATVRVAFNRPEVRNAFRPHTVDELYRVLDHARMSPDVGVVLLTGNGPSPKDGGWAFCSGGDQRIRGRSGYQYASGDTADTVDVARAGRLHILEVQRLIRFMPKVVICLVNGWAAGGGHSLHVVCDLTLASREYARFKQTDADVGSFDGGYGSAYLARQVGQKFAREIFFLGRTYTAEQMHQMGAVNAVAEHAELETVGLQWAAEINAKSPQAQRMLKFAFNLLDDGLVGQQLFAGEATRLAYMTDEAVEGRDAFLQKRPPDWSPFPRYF
PV pol inh intensity: second read-out of PV pol inh, no call of its own (marks repeat the call); % elongation; measured here: total intensity read-out; formula for this scale not given here;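 total fluorescence in place of polarization; lower means less elongation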
* marks the source's active call; other numbers are inactive results; / = not tested or not shown. This is a random part of the collection, and some 1.8% of all compounds hit somewhere here.

compound	MbtI inh	PV pol inh	PV pol inh intensity	Mtb MenB inh
Cc1ccc(S(=O)(=O)NCC2CCC(C(=O)NCc3cccnc3)CC2)cc1 (configuration not stated)	-3	100	104	3
CCC(C)NC(=O)c1cc(-c2cccs2)nc2c1c(C)nn2-c1ccccc1 (configuration not stated)	5	105	106	-8
NC(=O)c1ccsc1NC(=O)COC(=O)c1ccccc1	16	104	99	-2
CCN(CC)C(=O)N1CCN(CCC#N)CC1	-4	100	101	-24
C=CCN1C(=O)C2(C(C(=O)OCC)=C(N)Oc3ccccc32)c2c1c1ccccc1oc2=O (configuration not stated)	-6	98	107	-2
O=C(Cc1ccccc1)c1ccc2c(c1)OCO2	/	109	106	-15
Cc1nn(-c2ccccc2)c(Cl)c1/C=N/NC(=O)c1cccnc1	-21	103	90	-42
Cc1c(CN2CCN(c3cccc(C(F)(F)F)c3)CC2)c(=O)n(-c2ccccc2)n1C	-8	/	/	-33
CCCCc1ccc(NC(=O)Nc2ccc(N3CCCCC3)cc2)cc1	-15	111	115	0
CC1(C)CC(NCCCN2CCCCC2)=CC(=[N+]2CCCCC2)C1	15	101	104	/
O=C(OCc1nccn1Cc1ccc(Cl)cc1)c1ccccc1Cl	-9	107	108	-9
Cc1ccc(Cn2cc(CO)c3ccccc32)cc1	3	99	97	-22
CC(=O)[C@H]1CC[C@H]2[C@@H]3C=CC4=CC(=O)CC[C@@]4(C)[C@@H]3CC[C@]12C	-5	100	100	-3
Cc1ccc(NC(=O)CSc2cccc[n+]2[O-])c(Br)c1	4	100	101	/
CC(C)C(=O)c1cn(Cc2ccccc2C#N)c2ccccc12	2	99	111	-13

Compound profiles (already shown). Order of screens: MbtI inh	PV pol inh	PV pol inh intensity	Mtb MenB inh
Results for Cc1ccc(NC(=O)CSc2cccc[n+]2[O-])c(Br)c1 = 4	100	101	/
Results for CC(C)C(=O)c1cn(Cc2ccccc2C#N)c2ccccc12 = 2	99	111	-13
Results for CC(=O)[C@H]1CC[C@H]2[C@@H]3C=CC4=CC(=O)CC[C@@]4(C)[C@@H]3CC[C@]12C = -5	100	100	-3
Results for Cc1ccc(S(=O)(=O)NCC2CCC(C(=O)NCc3cccnc3)CC2)cc1 (configuration not stated) = -3	100	104	3

Following part.
compound	MbtI inh	PV pol inh	PV pol inh intensity	Mtb MenB inh
O=C(CSc1nnc(-c2ccccc2)n1CCN1CCOCC1)NC1CCCCC1	/	98	107	-18
COc1ccc(-c2cn(-c3ccc(C)c(Cl)c3)c(=S)[nH]2)cc1OC	58	102	104	-42
COc1ccc(-c2nc3ccccn3c2Nc2ccc3c(c2)OCO3)cc1	-12	96	105	-9
COc1ccc(C(=O)/C=C2/NCC(C)NC2=O)cc1 (configuration not stated)	0	106	101	-76
CCCCn1nnnc1COC(=O)CCc1c[nH]c2ccccc12	-13	105	109	-14
Nc1ncnc2c1ncn2[C@@H]1O[C@H](CO)[C@H](O)C1O (some centres not stated)	-13	100	101	2
NC(=O)C1CCN(c2ncnc3nc[nH]c23)CC1	-5	106	108	6
CCOc1ccc2oc(C(=O)NN3C(C)CCCC3C)c(C)c2c1 (configuration not stated)	-6	107	110	5
CN(Cc1ccc(C(C)(C)C)cc1)C(=O)c1ccc(N(C)C)cc1	0	97	102	-9
COc1ccc2c(COc3cccc(F)c3)cc(=O)oc2c1	95	113	124	1
COc1ccc2c(c1OC)C(=O)O[C@H]2[C@H]1c2c(cc3c(c2OC)OCO3)CCN1C	-5	99	100	3
CC(C)(C)OC(=O)NC1CCN(C(=O)CSCC(=O)O)CC1	1	103	100	2
O=C(CSC1=NCCS1)C12CC3CC(CC(C3)C1)C2	0	100	102	/
O=C(NC1CCCC1)C1CCN(c2ccccc2)C1=O (configuration not stated)	-2	100	101	15
COc1ccc2c(Cl)c(C(=O)Nc3ccc(C(N)=O)cc3)sc2c1	6	103	107	/
Cc1nc(=O)c(-c2ccccc2)c(C)n1CCCCCC(=O)O	-20	103	106	-17
Cc1ccc(S(=O)(=O)C(C)C(=O)c2ccc3c(c2)OCCO3)cc1 (configuration not stated)	11	101	104	16
Cc1nc2c3ccccc3n(CC(=O)c3ccc(Br)cc3)c(=O)n2n1	-7	101	104	3
COc1cccc2oc(-c3ccccc3)c(Br)c12	3	105	102	-25
Cc1nn(Cc2ccccc2Cl)c(C)c1C(=O)NC1=NCCS1	1	103	109	-5
O=C(O)Nc1cc(Cl)cc(Cl)c1	/	104	109	-6
CCOC(=O)c1oc2ccc(S(=O)(=O)Nc3ccc4[nH]c(=O)[nH]c4c3)cc2c1C	2	100	102	-8
COc1ccc(CC(=O)NC2CCCCC2)cc1OC	/	101	105	6
CCn1c(CNC(=O)C(OC)c2ccccc2)nnc1SC (configuration not stated)	-5	101	103	-21
CCOc1ccc(-n2c(SCC(=O)NC(=O)CN3CCCC3=O)nc3ccccc32)cc1	5	101	104	4
Cc1ccc(O)c(C(=O)c2cnn3c(=S)[nH]nc3c2)c1	43	71*	71*	-18
Cc1noc(NS(=O)(=O)c2ccc(NC3OC(=O)c4ccccc43)cc2)c1C (configuration not stated)	-10	101	108	-88
C(=C\c1ccccc1)/C=N/[n+]1ccccc1	10	102	107	/
Cn1c(-c2ccccc2)nc2cc(N)ccc21	69	100	103	19
COc1cc2c(cc1OC)C(C)N(C(C)=O)CC2 (configuration not stated)	-7	99	94	1
C=CCNc1nc(C(=O)OCC(=O)NCc2cccc(OC)c2)cs1	3	98	98	-23
CCC1CCCCN1C(=O)COC(=O)CSc1cc(C)ccc1C (configuration not stated)	-17	105	104	/
Cc1ccc(-c2nc3nc(C)cc(=O)n3[nH]2)cc1	3	100	101	-15
Cc1ccc(F)c(NC(=O)C(F)(F)C(F)F)c1	-13	102	101	4
O=C(c1cc2c(s1)-c1ccccc1S(=O)(=O)C2)N1CCCCC1	0	104	102	-1
CC(=O)O/N=C(\C)c1c(OC(C)=O)ccc2c(C)cc(=O)oc12	-73	99	103	-4
CCCOc1ccc(C2C3CN(CC)CC=C3C(C#N)=C(N)C2(C#N)C#N)cc1OC (configuration not stated)	7	92	117	-51
Cc1ccc2occ(CC(=O)N(C)Cc3ccccc3)c2c1	4	101	103	-20
COc1ccccc1NC(=O)c1ccc(OCC(=O)O)cc1	5	100	103	10
OC(CN1CCNCC1)Cn1c2ccc(Br)cc2c2cc(Br)ccc21 (configuration not stated)	-2	100	106	-8
N#Cc1ccc(COC(=O)CN2C(=O)COc3ccccc32)cc1	20	99	100	3
O=S(=O)(NCC(c1ccccc1)N1CCNCC1)c1ccccc1 (configuration not stated)	-7	105	100	-9
CCC(=O)c1[nH]c(C)c(C(=O)CC)c1C	/	98	105	-11
O=C(COc1ccccc1O)NCC1CCCO1 (configuration not stated)	-17	105	105	/
Nc1ccc(S(=O)(=O)CCSS(=O)(=O)c2ccc(N)cc2)cc1	99*	63*	71*	7
COCc1cc(C)nc2sc(C(=O)N(C)c3ccccc3)c(-n3cccc3)c12	/	102	103	-43
CC(=O)N1C(=N)S/C(=C/c2cc3ccccc3nc2Sc2ccccc2)C1=O	-4	99	102	-11
COC(=O)C(Cc1ccc(O)cc1)NC(=O)c1ccc(OC)c(OC)c1 (configuration not stated)	-8	101	102	-7
CCOC(=O)N1CCC(NC(=O)Cn2ncc3c4ccccc4n(C)c3c2=O)CC1	3	104	103	-15
CCOC(=O)c1sc(SC)c2c1CCc1conc1-2	-10	104	110	-15
O=c1cc(CSc2nnnn2-c2ccccc2)[nH]c2nc3ccccc3n12	-20	99	101	-7
Clc1ccc(OCc2nn[nH]n2)cc1	-10	104	102	-16
CSc1ncc(C(=O)NCCCN2CCc3ccccc3C2)c(C)n1	9	101	102	3
CCc1c(C)c2cc3c(-c4ccccc4)coc3cc2oc1=O	2	104	105	-2
Oc1ccc(C=NC2c3ccccc3-c3ccccc32)cc1	/	109	109	-5
CCOC(=O)CC1=C(C#N)C(c2cccnc2)C(C(=O)OCC)=C(N)O1 (configuration not stated)	/	107	110	-4
O=C(O)c1cccc(NC(=S)N/N=C/c2cccc(O)c2)c1	17	101	102	-4
CCCCn1c(CCCNC=O)nc2ccccc21	-19	101	102	-11
O=C(c1cccc(C(F)(F)F)c1)N1CCCCC1	11	101	101	-9
Cc1nnc(C)c2c(C)n(-c3ccccc3N)c(C)c12	-16	102	106	/

Following part.
| Compound | MbtI inh | PV pol inh | PV pol inh intensity | Mtb MenB inh |
| --- | --- | --- | --- | --- |
| CN(C)CCCN1C(=O)C(O)=C(C(=O)c2cccs2)C1c1ccco1 (configuration not stated) | / | 97 | 103 | -44 |
| CCOCC(=O)N1CCc2ccccc21 | / | 102 | 90 | -4 |
| Cc1nnc(SCC(=O)NCCN2CCOCC2)c2nn(-c3ccccc3)c(C)c12 | 11 | 100 | 108 | -28 |
| CCCCCCCc1c(O)nc(SCCN2CCOCC2)n(-c2ccccc2)c1=O | 7 | 103 | 102 | 10 |
| CC12CCC(=O)N1C(C(=O)Nc1nccs1)CS2 (configuration not stated) | 3 | 103 | 106 | -12 |
| COC(=O)NCc1cc(OC)c(OC)c(OC)c1 | -15 | 103 | 102 | -2 |
| Cc1csc(C(C#N)C(=O)CSc2ccc3c(c2)OCCO3)n1 (configuration not stated) | 23 | 111 | 124 | -3 |
| CC(C)NC(=O)C1CCCCC1C(=O)O (configuration not stated) | -12 | 102 | 99 | -9 |
| Cc1cc(N2CCN(c3cccc(C)c3C)CC2)nc(-c2ccccc2)n1 | -5 | 102 | 101 | -18 |
| CCCNC(=O)N1CCC(C(=O)c2cccc(F)c2)CC1 | -4 | 103 | 101 | -9 |
| Cc1ccc(CNC(=O)c2ccc(N3CCSc4ncccc43)s2)o1 | -254 | 100 | 104 | -6 |
| CN1C(=O)C(=Cc2ccc(-c3cccc(Cl)c3)o2)C(=O)N(C)C1=S | / | 111 | 108 | 6 |
| Cc1ccc(S(=O)(=O)Nc2ccccc2N)cc1 | 1 | 100 | 110 | / |
| O=C(NCCC1=CCCCC1)C1CCC(CNS(=O)(=O)c2ccccc2)CC1 (configuration not stated) | -6 | 103 | 105 | 10 |
| COc1ccc2cc3c(N)nn(C(=O)c4ccncc4)c3nc2c1 | 6 | 100 | 102 | 5 |
| COc1cccc(Cn2c(=O)n3nc(CCn4nc(C)cc4C)nc3c3ccccc32)c1 | 1 | 99 | 103 | 2 |
| Cc1csc(C(C#N)C(=O)CSc2nc3ccccc3o2)n1 (configuration not stated) | 13 | 104 | 114 | -16 |
| Cc1oc2ncn3nc(C(C)Oc4cccc5ccccc45)nc3c2c1C (configuration not stated) | 16 | 101 | 104 | -9 |
| Cc1ccccc1OC(=O)Cn1c(=O)sc2ccccc21 | / | 104 | 107 | -19 |
| CC(=O)N1C(=O)NC(=O)C1(C)C | -12 | 106 | 101 | -23 |
| NNC(=O)c1n[nH]c2c1CCC2 | -14 | 102 | 101 | -62 |
| CCOC(=O)/C=C(\C)Nc1nc2ccccc2s1 | -5 | 101 | 102 | -9 |
| N=c1sc2ccccc2n1CC(O)c1ccc(Cl)c(Cl)c1 (configuration not stated) | -2 | 100 | 95 | / |
| O=C(C1CCN(S(=O)(=O)c2cc(C(F)(F)F)ccc2Cl)CC1)N1CCN(C(=O)C2CCCO2)CC1 (configuration not stated) | -4 | 99 | 96 | -9 |
| COc1ccc(CCNC(=O)c2ccc(Cl)cc2NC(=O)C2=C(C)OCCS2)cc1OC | -7 | 102 | 105 | -18 |
| CC(C)CNc1ncnc2c1oc1ccccc12 | -33 | 108 | 122 | -19 |
| CSC(=NC1CCCCC1)NC#N | / | 103 | 105 | -2 |
| Cc1cnc(C(=O)OCc2c(C)cc(C(C)(C)C)cc2C)cn1 | 8 | 111 | 102 | 6 |
| O=C(CNC(=O)c1ccccc1F)NCc1ccco1 | -8 | 106 | 108 | -11 |
| O=C1CN(c2ccc(S(=O)(=O)N3CCCC3)cn2)CCN1 | 21 | 102 | 106 | 16 |
| S=C(NCC1CCCO1)N/N=C/c1cccnc1 (configuration not stated) | 22 | 100 | 98 | -11 |
| c1csc(-c2nnc(N3CCCCCC3)c3ccccc23)c1 | -11 | 101 | 106 | -11 |
| COCCN(Cc1cc2cc(C)c(C)cc2nc1Cl)C(C)=O | 9 | 103 | 103 | -18 |
| CC(C)CCNC(=O)Oc1ccccc1 | -10 | 107 | 114 | -16 |
| CCN(C(=O)c1cc2c(-c3ccc(Cl)cc3)nn(C)c2s1)c1cccc(Cl)c1 | 12 | 101 | 104 | -16 |
| O=S(=O)(c1ccc(N=Cc2ccncc2)cc1)c1ccc(N=Cc2ccncc2)cc1 | / | 104 | 102 | -1 |
| O=S(=O)(Nc1ccccc1N1CCOCC1)c1ccc(-c2ccccn2)s1 | 2 | 100 | 96 | 17 |
| O=C(/C=C/c1ccc(Br)o1)N(Cc1nc2ccccc2c(=O)[nH]1)CC1CCCO1 (configuration not stated) | 0 | 112 | 113 | -13 |
| CN1CCN(c2ccc(CNC(=O)c3ccc4c(c3)OCCO4)cc2)CC1 | -3 | 103 | 110 | 15 |
| O=C1/C(=C/c2ccc(O)cc2)N=C(c2ccccc2)N1c1nc2cc(Cl)c(F)cc2s1 | / | 92 | 91 | -45 |
